Bioassay records from PubChem BioAssay.
PABP FP inh – blocks human PABP binding to poly(A) RNA; inhibition, % at 35 µM; actives 1% (n = 290,000); AID 2014; fluorescence polarization;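 active = 50% or more with normal probe brightness, or confirmed in later tests; inconclusive = above 50% with abnormal brightness, or retests that disagree; inactive = below 50% or failed in later tests; about a fifth of its hits are not listed in these tables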;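 note: calls also rest on retests at 20 µM and on dose response follow-up; controls were probe without protein and protein plus probe with vehicle; some compounds called inactive have numbers as strong as hits; many hits fall short of the cut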
MT1-MMP act inh – blocks activation of human MT1-MMP; HT1080 RFP-PRO-GFP cells, GFP/RFP ratio fluorescence, overnight; percent of plate control window, DMSO zero; GFP/RFP ratio change, % at 20 µM; actives 0.061% (n = 360,000); AID 651647;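 active = GFP/RFP ratio change of at least 30% with cell ATP level not reduced by more than half and red fluorescence within 50% of control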; note: strong numbers were not always called active
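Assay system: HT1080 RFP-PRO-GFP cells. Benchmarks: DMSO vehicle wells and RFP-L50D-GFP reporter cell wells. Times: overnight cell settling, then overnight compound exposure, 37 °C, 5% CO2. Compound: 20 µM single dose, 1% DMSO. Read-out basis: GFP/RFP fluorescence ratio.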
Env fusion inh – inhibitors of HIV Env-mediated cell fusion | actives 1.1% (n = 360,000) | HeLa-JRFL Env/CEM21 cell fusion, luciferase | AID 651610 | inhibition, % at 12.3 µM;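 active = mean replicate inhibition score of at least 50 and every replicate individually at or above 50; inconclusive = only one of the two criteria met; inactive = mean below 50 and not all replicates reaching 50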;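 note: 0% = plate neutral controls and 100% = maraviroc near 300 nM; one replicate is shown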
eIF4H inh – inhibitors of RNA binding by human eIF4H; eIF4H fluorescence polarization binding assay; actives 0.94% (n = 290,000); inhibition, % at 35 µM; Q15056;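 active = 50% or more with normal probe brightness, or confirmed in later tests; inconclusive = above 50% with abnormal brightness, or retests that disagree; inactive = below 50% or failed in later tests; about a fifth of its hits are not listed in these tables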;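 note: calls also rest on retests at 20 µM and on dose response follow-up; 0% = protein and probe with vehicle and 100% = probe without protein; strong numbers were not always called active; many hits fall short of the cut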
CSC inhib – blocks cancer stem cells | cancer stem cell-like cells viability, luminescence | inhibition, % at 7.5 µM | actives 1.1% (n = 300,000);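 active = mean at 75% or more and at least half the replicates too; inconclusive = mean and replicates disagree; tested in HMLE shEcad cells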;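 note: 0% = median of negative and 100% = median of positive control wells; the first replicate is given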
Rce1 inhib – yeast Ras-converting enzyme inhibition. actives 0.27% (n = 290,000). Q03530. yeast membranes, quenched prenylated peptide cleavage fluorescence. calls only;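 active = fall in fluorescence gain of 50% or more versus controls, with final raw signal at or below 3038400; inconclusive = same 50% fall but final raw signal above 3038400; inactive = fall in fluorescence gain under 50%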;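 note: plate controls were neutral control wells for no effect and wells lacking membranes for full effect; tested at 10 µM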
Target sequence (Q03530 whole entry, looked up): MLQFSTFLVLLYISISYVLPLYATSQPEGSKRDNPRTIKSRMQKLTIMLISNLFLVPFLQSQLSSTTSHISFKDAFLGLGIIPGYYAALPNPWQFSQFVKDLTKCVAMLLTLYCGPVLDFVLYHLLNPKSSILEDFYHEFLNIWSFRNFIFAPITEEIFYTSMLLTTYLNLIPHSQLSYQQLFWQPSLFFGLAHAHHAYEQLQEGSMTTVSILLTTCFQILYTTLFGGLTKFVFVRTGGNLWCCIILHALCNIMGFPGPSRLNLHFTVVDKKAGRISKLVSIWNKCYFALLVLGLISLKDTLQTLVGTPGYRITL
UUG fidelity – alters start codon recognition fidelity in yeast. S. cerevisiae UUG-firefly luciferase reporter, luminescence/redox ratio. actives 0.13% (n = 350,000). activity score, % at 18.7 µM;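 active = replicate mean at a twofold rise or more, about +100% in these data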;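 note: firefly luciferase made from a UUG start codon reports start codon fidelity; reporter light over untreated wells divided by growth signal over untreated wells; some hits fall short of that in this replicate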
eIF4H inh retest – also measured in eIF4H inh; calls as there; inhibition, %; compound at 20 µM; confirmation average;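 mean of two retest wells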
PABP FP inh retest – also measured in PABP FP inh; calls as there; inhibition, %; compound at 20 µM; confirmation repeats;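 mean of two retest wells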
MT1-MMP act inh RFP – recorded beside MT1-MMP act inh, whose call it bears; RFP signal change, %; measured here: RFP expression control read;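 0 = vehicle wells; hits needed this value within 50% of zero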
* = called active by the depositor; i = inactive; ? = inconclusive; . = not tested or not shown; & = joins results of further samples. These rows are one share of the data, so the mix of outcomes need not match the whole.

SMILES	PABP FP inh	MT1-MMP act inh	MT1-MMP act inh RFP	Env fusion inh	eIF4H inh	CSC inhib	Rce1 inhib	UUG fidelity	others
Cc1cccc(CNC(=O)C2CCC(=O)N(CCCc3ccccc3)C2)c1 (centres undefined)	.	4	3	-32	.	.	.	-9
O=[N+]([O-])c1cccc(S(=O)(=O)/N=C(/Nc2ccccc2)c2ccccc2)c1	.	0	-4	18	.	-11	.	-6
CC(=O)c1ccc(NC2OC(C)C(O)C(O)C2O)cc1 (centres undefined)	-6	1	5	6	-10	9	i	-10
CCOc1ccc(NS(=O)(=O)c2ccc3[nH]cc(C(=O)NC(C)CC)c(=O)c3c2)cc1 (centres undefined)	.	1	1	-39	.	-4	i	-24
COc1ccc2nc(C(F)(F)C(F)(F)F)c(C#N)c(N)c2c1	4	1	-8	.	-6	-10	i	-14
CNC(=O)COC(=O)CNC(=O)c1cc(Cl)cc([N+](=O)[O-])c1	36	-3	3	-3	1	-7	i	.
O=C(CNC(=O)c1ccco1)NCCCc1ccccc1	-6	0	4	-51	-10	-23	i	.
CC(C)c1ccc(NC2CCCN(C(=O)CN3C(=O)CSC3=O)C2)cc1 (centres undefined)	4	1	0	-1	-6	-10	i	-2
CCOC(=O)c1sc(=S)n(-c2ccc3c(c2)OCO3)c1N	12	1	-2	.	1	-19	i	-19
Cc1cc(C)cc(NS(=O)(=O)c2ccc(NC(=O)c3ccccc3C(=O)O)cc2)c1	.	3	7	-10	.	-5	i	-12
O=C(CCNC(=O)C1CCN(S(=O)(=O)c2ccc(F)cc2)CC1)NCc1ccc(F)cc1	0	1	2	-1	-13	-10	i	2
CCn1c(C)nc2cc(C(=O)NNC(=S)Nc3ccccc3OC)ccc21	-1	.	.	2	3	-8	i	.
C=CCN1CC(=O)N2Cc3[nH]c4ccccc4c3C[C@H]2C1=O	-4	0	2	1	-12	-10	i	6
CC/C(=N/O)c1cnnc(SC)n1	-3	0	3	2	-2	6	i	-13
C/C(=N\NC(=O)c1ccc(Cn2cc(Br)cn2)o1)c1ccc(NC(=O)c2ccoc2C)cc1	2	2	1	.	-3	.	i	-16
COc1ccc(C(=O)N2N=C(c3cccc(NS(C)(=O)=O)c3)CC2c2cccs2)cc1 (centres undefined)	-6	3	2	-6	-7	-6	i	-9
Cn1nc(-c2ccccc2)c(C(O)c2ccccc2C(F)(F)F)c1Cl (centres undefined)	12	0	8	-18	13	-9	i	-7
CCOc1ccc2nc(SCC(=O)c3ccc(Cl)s3)sc2c1	50*	4	4	.	55*	-10	i	-1
Cc1cc(CNC(=S)Nc2ccc(S(=O)(=O)Nc3ncccn3)cc2)nn1C	0	1	3	-2	-14	-8	i	-19
COC(=O)c1cc(NC(=O)Cn2c(=O)oc3ccccc32)cc(C(=O)OC)c1	2	0	-1	7	-2	14	i	-1
O=C1CC(N(Cc2cccs2)C(=O)Nc2ccccc2)C(=O)N1c1ccc(Cl)cc1 (centres undefined)	17	5	2	-13	-5	0	i	-18
COC(=O)c1ccc(Cl)cc1NC(=O)/C=C/c1ccc(C)o1	9	-6	2	2	5	26	i	.
CCOc1ccc(OCCNC(=O)C(NC(=O)c2c(F)cccc2F)C(C)C)cc1 (centres undefined)	.	-4	-3	3	.	-1	.	-13
COc1ccccc1CN1CC(C(=O)NCCc2ncccc2C)CCC1=O (centres undefined)	2	-4	-2	-4	2	.	i	-23
COc1ccc(NC(=O)N(C)C[C@@H]2Oc3cc(Br)ccc3S(=O)(=O)N([C@H](C)CO)C[C@H]2C)cc1	.	6	8	-51	.	.	.	-4&4
Cc1c(C(=O)O)sc2nc(/C=C/c3ccccc3OC(F)F)[nH]c(=O)c12	-5	1	1	1	-9	-12	i	-8
COCC(=O)N1CCC(Oc2ccc(C(=O)N3C[C@@H](C)O[C@@H](C)C3)cc2)CC1	-4	0	0	19	-7	-6	i	4
Cc1nn(CC(O)COc2ccc3c(c2)CCC3)c(C)c1Br (centres undefined)	-6	-1	-1	-4	32	20	i	-17
CCN(CC)C(=O)Cn1nc(-c2ccncc2)nc1SCC(=O)Nc1ccc(OC)cc1	0	-1	1	-27	3	7	i	-3
CC(=O)Nc1cc(-c2cccc(C(=O)N(C)C)c2)cn2c(-c3cccc(C(F)(F)F)c3)cnc12	.	-6	-1	3	.	.	.	-1
O=c1c(-c2ccnn2-c2ccccc2F)cnc2n1CCS2	-9	0	4	-7	-5	.	i	-13
C[C@@H]1CN(C(=O)c2ccc(OC3CCN(S(=O)(=O)N(C)C)CC3)cc2)C[C@H](C)O1	-1	1	0	-12	-2	-2	i	-7
CC(C)CC(=O)NC1(C(F)(F)F)NC(=O)N(c2ccccc2)C1=O (centres undefined)	-16	-2	1	4	2	.	i	-4
Cc1cccc(NC(=O)c2sc3nc4c(c(-c5ccco5)c3c2N)CCC4)c1	63*	-14	-2	.	83*	57	i	-17	eIF4H inh retest=91*;PABP FP inh retest=88*
COc1ccc(CC(=O)Oc2ccc(C(C)C)cc2)cc1S(=O)(=O)N1CCOCC1	.	-3	1	8	.	.	i	.
COc1ccc([N+](=O)[O-])cc1NC(=O)CS(=O)(=O)c1ccc(C)cc1	-9	1	-4	7	2	.	i	-18
O=C(CSc1nnc(Cn2cnc3ccccc32)o1)c1ccccc1	0	6	-3	41	0	-13	i	-24
Cn1cc(S(=O)(=O)N2CCOCC2)cc1C(=O)NCc1ccc(Cl)cc1	-5	-3	1	30	-3	-7	i	-10
O=c1[nH]c2c(oc3ccccc32)c(=O)n1Cc1ccccc1	-8	-7	-1	-6	-12	-9	i	-13
COc1ccc(-c2cnc3c(c2)C(=O)N([C@H](C)CO)C[C@H](C)[C@H](CN(C)C(=O)Cc2cccnc2)O3)cc1	.	2	3	3	.	.	.	3&1

Pulled by structure from above, 5 records:
SMILES	PABP FP inh	MT1-MMP act inh	MT1-MMP act inh RFP	Env fusion inh	eIF4H inh	CSC inhib	Rce1 inhib	UUG fidelity	others
CCOC(=O)c1sc(=S)n(-c2ccc3c(c2)OCO3)c1N	12	1	-2	.	1	-19	i	-19
CC(=O)Nc1cc(-c2cccc(C(=O)N(C)C)c2)cn2c(-c3cccc(C(F)(F)F)c3)cnc12	.	-6	-1	3	.	.	.	-1
CC(=O)c1ccc(NC2OC(C)C(O)C(O)C2O)cc1 (centres undefined)	-6	1	5	6	-10	9	i	-10
C/C(=N\NC(=O)c1ccc(Cn2cc(Br)cn2)o1)c1ccc(NC(=O)c2ccoc2C)cc1	2	2	1	.	-3	.	i	-16
COc1ccc(NC(=O)N(C)C[C@@H]2Oc3cc(Br)ccc3S(=O)(=O)N([C@H](C)CO)C[C@H]2C)cc1	.	6	8	-51	.	.	.	-4&4

Following part
SMILES	PABP FP inh	MT1-MMP act inh	MT1-MMP act inh RFP	Env fusion inh	eIF4H inh	CSC inhib	Rce1 inhib	UUG fidelity	others
COc1ccc(/C=N/NC(=O)C2CC2)c(OC)c1OC	-2	-2	-4	.	-7	22	i	-10
CCn1c(C(O)c2ccc(C)cc2)nc2ccccc21 (centres undefined)	-3	0	-3	.	-3	-4	i	-10
O=C(/C=C/c1ccc(F)cc1)NCc1ccco1	-15	10	5	.	36	-4	i	.
CCCCCN(C(=O)CCC(=O)OC(C)C(=O)c1ccc(CC)cc1)c1c(N)n(CCCC)c(=O)[nH]c1=O (centres undefined)	.	-4	-8	-12	.	.	.	-5
CC(NS(=O)(=O)c1ccc(F)cc1)C(c1cccs1)N1CCOCC1 (centres undefined)	2	9	2	2	-1	-5	i	-4
CCN(CC)N=Nc1ccc(S(=O)(=O)Nc2c(C)n(C)n(-c3ccccc3)c2=O)cc1	-2	-2	3	19	0	-12	i	-10
CCOc1ccc(S(=O)(=O)NCCC(=O)NCCOc2ccccc2)cc1	.	3	0	-4	.	.	i	.
CCC(C)(C)NC(=O)CN(C(=O)C(=O)Nc1ccc2c(c1)OCCO2)C(C)(C)CC	1	-5	-6	1	-6	-11	i	1
Cc1csc(NC(=O)CSCC(=O)Nc2ccccc2)n1	2	-3	-1	.	-9	-6	i	-2
CCNC(=O)CC1C(=O)N(c2ccc(OC)cc2)C(=S)N1CCc1ccncc1 (centres undefined)	38	-2	-1	.	20	-1	i	.
CCOC(=O)Cn1nnnc1CN(Cc1ccc(OC)cc1)Cc1cc2cc(C)cc(C)c2[nH]c1=O	-4	-1	-7	.	-1	-9	i	2
O=C(/C=C/c1cccs1)Nc1ccc(S(=O)(=O)Nc2ncccn2)cc1	-2	2	0	-6	9	2	i	-14
COc1cccc(CN2CCN(CC(=O)NCCc3ccccc3)CC2)c1	-1	-3	-1	3	-5	-12	i	-10
CCOC(=O)C[C@H]1c2ccc(C(F)(F)F)cc2S(=O)(=O)N1Cc1ccccc1	.	0	0	-9	.	4	i	-13
COc1cccc(/C=C/C(=O)OCC(=O)Nc2ccc(S(=O)(=O)N3CCCC3)cc2)c1	-5	-5	-4	.	5	7	i	-18
CCCC[C@@H]1CCCO[C@@](C(=O)NCc2ccc(C)o2)(C(F)(F)F)C1	.	-5	1	33	.	-8	i	-15
COc1ccc([N+](=O)[O-])cc1NC(=O)Cn1ccc(C(F)(F)F)n1	-6	4	-1	3	34	4	i	-7
Cc1ccc(CCNC(=O)C2CC(c3ccccc3C(F)(F)F)=NO2)cc1 (centres undefined)	-5	7	-2	7	-11	4	i	1
COCc1nnc(NC(=O)c2ccc(S(=O)(=O)N(C)c3ccccc3)cc2)o1	-3	-1	-2	16	-2	31	i	-21
O=C(Nc1ccc2nc3n(c(=O)c2c1)CCCC3)c1cncc(Br)c1	.	-8	-4	9	.	-11	i	-11
CC(C)CC(c1nnnn1C(C)C)N1CCN(c2cccc(Cl)c2)CC1 (centres undefined)	-6	-16	-18	.	-8	46	i	5
CCC(CC)C(=O)Nc1cc(C(=O)OC)ccc1C(=O)OC	-5	-4	-1	18	-7	8	i	.
CCN1C(=O)[C@H]2[C@@H](c3ccc(-c4ccc(Cl)c(Cl)c4)cc3)N[C@@](C)(C(=O)OC)[C@H]2C1=O	.	0	-4	8	.	46	i	-14
CCn1cc(CN(C)C(=O)CSc2nc(-c3ccco3)cc(C(F)(F)F)n2)c(C)n1	.	-1	-7	.	.	9	i	.
O=C(C1COc2ccccc2O1)N1CCc2ccccc2C1 (centres undefined)	4	-2	-2	.	10	5	i	-33
COCCn1c(-c2ccc(Cl)cc2)nc2oc3cc(OC)ccc3c(=O)c2c1=O	-4	3	1	-16	-5	-15	i	-3
COc1ccc(C2c3ccc(O)cc3Oc3ncn(CCN4CCOCC4)c(=N)c32)cc1OC (centres undefined)	16	-38	-3	14	16	-1	i	-15
Cc1ccc(N2CC(O)Cn3c2nc2c3c(=O)[nH]c(=O)n2C)cc1 (centres undefined)	10	2	2	1	-2	-21	i	-14
COc1ccc(CCNC(=O)CSCc2ccc(C)cc2)cc1OC	.	0	1	.	.	-1	i	.
Cc1cccc(C(=O)NCC(=O)OCc2nnc(-c3ccccc3)o2)c1	.	3	4	-37	.	.	i	.
CC1(C)Cc2ccccc2-c2nc(CN3CCOCC3)[nH]c(=O)c21	2	6	4	33	6	-19	i	-6
CCOC(=O)C1=C(C)N=c2s/c(=C/c3ccco3)c(=O)n2C1c1cccc(OC)c1 (centres undefined)	?	.	.	.	?	7	i	.
O=C(NCc1ccc2c(c1)OCO2)c1ccc(Br)cc1	-2	0	1	-5	-7	-8	i	-17
COc1ccccc1N1CCN(C(=O)CCCN2C(=O)c3cccc4cccc(c34)C2=O)CC1	-16	-10	-6	19	-2	9	i	2
